# Assay outcomes (PubChem)
# hNpr1 antagonist = Natriuretic polypeptide receptor (hNpr1) antagonism - Primary qHTS. Atrial natriuretic peptide receptor 1 (Homo sapiens), P16066. HEK293 hNpr1 GloSensor cGMP, ANP-stimulated luminescence. Potency, µM (top dose mostly 46.3 µM), for the others: at the highest dose activity change, negative = inhibition, usual class: inhibitors. 1.6% of 76,000 active; active = well fitted inhibition curve with a large enough effect; inconclusive = small, poorly fitted or top-dose-only effect; inactive = no such curve, though single readings can be large or run the other way;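 note: nearly all actives have a fitted effect of over 60% in size; nearly all hits also lower the signal before the agonist is added; a reference antagonist and vehicle were the controls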
# Target sequence (P16066 whole entry, looked up): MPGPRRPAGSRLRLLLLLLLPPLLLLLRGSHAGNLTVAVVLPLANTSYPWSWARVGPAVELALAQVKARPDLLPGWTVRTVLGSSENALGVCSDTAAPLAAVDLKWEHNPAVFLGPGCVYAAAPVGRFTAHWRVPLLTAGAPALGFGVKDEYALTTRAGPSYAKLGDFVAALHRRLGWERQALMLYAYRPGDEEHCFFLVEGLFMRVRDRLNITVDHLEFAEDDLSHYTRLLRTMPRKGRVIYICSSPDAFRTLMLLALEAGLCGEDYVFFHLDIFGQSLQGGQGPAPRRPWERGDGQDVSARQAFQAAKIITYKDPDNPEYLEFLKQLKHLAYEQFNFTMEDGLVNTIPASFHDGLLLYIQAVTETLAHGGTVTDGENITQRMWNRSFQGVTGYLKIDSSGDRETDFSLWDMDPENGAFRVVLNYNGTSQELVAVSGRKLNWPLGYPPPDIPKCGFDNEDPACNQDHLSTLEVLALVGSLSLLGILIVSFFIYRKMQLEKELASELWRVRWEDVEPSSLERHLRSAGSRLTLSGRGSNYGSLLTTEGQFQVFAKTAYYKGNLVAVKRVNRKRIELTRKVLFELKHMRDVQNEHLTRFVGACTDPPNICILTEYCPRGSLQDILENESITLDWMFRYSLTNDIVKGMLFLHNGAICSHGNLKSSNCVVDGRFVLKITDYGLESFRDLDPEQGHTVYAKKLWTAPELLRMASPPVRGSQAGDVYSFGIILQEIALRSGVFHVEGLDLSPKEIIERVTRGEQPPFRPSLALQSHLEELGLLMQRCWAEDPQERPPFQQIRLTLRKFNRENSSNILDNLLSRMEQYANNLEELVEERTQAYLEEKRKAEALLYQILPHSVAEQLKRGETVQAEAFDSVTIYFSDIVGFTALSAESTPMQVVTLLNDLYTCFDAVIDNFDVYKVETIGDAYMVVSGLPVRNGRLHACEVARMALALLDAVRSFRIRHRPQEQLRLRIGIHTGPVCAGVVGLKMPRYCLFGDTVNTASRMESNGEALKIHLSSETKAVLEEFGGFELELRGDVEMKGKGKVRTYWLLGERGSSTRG
#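 HEK293 cells stably expressing human Npr1 and cGMP GloSensor pGS-40F, loaded 2 h with 2% GloSensor reagent, given compound 30 min at room temperature. Luminescence read before and 20 min after 0.1 nM hNppA.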
# The depositor's hits bear a star; ? = inconclusive; [ ] = remark or other dose. % is set by controls: 0 for no effect and ±100 for the full control effect; potency is the fitted concentration of half-maximal effect.
canonical_smiles	hNpr1 antagonist
O=c1[nH]c(N2CCOCC2)nc2c1CCN(Cc1cc(F)ccc1F)CC2	-2%
Cc1ccccc1C(=O)N[C@@H]1CN(C)C[C@H]1CN(C)C	5%
COc1ccccc1NC(=O)N1CCC(N2CC3CC(C2)[C@H]2CCCC(=O)N2C3)CC1 (stereo partly specified)	-3%
COCc1nncn1C1CCN(S(=O)(=O)c2ccc(C)c(Cl)c2)CC1	-22%
Cc1ncccc1C(=O)N1CCC(Oc2ccc(-c3noc(-c4ccccc4)n3)cc2)C1 (stereo unspecified)	11µM*
O=C(COc1ccc(Cl)cc1)Nc1cccc(-c2nnc3n2CCCC3)c1	?
COCCc1noc(-c2ccccc2OC2CN(C(=O)CC(C)C)C2)n1	17%
Cc1cccc2[nH]c(CCNC(=O)C3[C@H]4CN(C5CCCC5)C[C@@H]34)nc12 (stereo partly specified)	3%

# Next section (two carried over from the part before).
canonical_smiles	hNpr1 antagonist
COCCc1noc(-c2ccccc2OC2CN(C(=O)CC(C)C)C2)n1	17%
Cc1cccc2[nH]c(CCNC(=O)C3[C@H]4CN(C5CCCC5)C[C@@H]34)nc12 (stereo partly specified)	3%
COc1ccc(C(=O)N2CCC(c3ncc(C)n3C(C)C)C2)cc1 (stereo unspecified)	0%
CCOc1ccc(NC(=O)C2(C)CCCCC(=O)N2)cc1 (stereo unspecified)	0%
COCc1cn2c(=O)n(C)cc(-c3cccc(F)c3)c2n1	2%[70.6 µM]
COc1ccc(S(=O)(=O)N2CC(c3noc(-c4cccnc4)n3)C2)cc1Cl	-1%
O=C1CN(C(=O)CCC(=O)N2CCCC(Cc3nncn3Cc3ccccc3)C2)c2ccccc2N1 (stereo unspecified)	4%
O=C(O)C[C@@H]1CCN(C(=O)c2ccnc(Cl)c2)C[C@@H]1CCN1CCN(c2cccc(C(F)(F)F)c2)CC1	0%
O=C(NCc1cc(-c2ccco2)on1)[C@H]1CNC[C@@H](C(=O)N2CCOCC2)C1	0%
COCc1nnc2n1CCC(NC(=O)c1cc(C3CC3)[nH]n1)CC2 (stereo unspecified)	1%
CC(C)Oc1ccc(C(=O)NC2CCN(c3cnn(CC4CC4)c(=O)c3)CC2)cc1	-22%
Cc1ccc(C(=O)N2CCCC3(CN[S+](=O)([O-])c4ccccc4N3)C2)cc1 (stereo unspecified)	-1%
COCC(=O)N1CCC(Oc2cnc3c(ccn3-c3cncnc3)c2)CC1	2%[70.6 µM]
CCNC(=O)C1C(c2cccc(NC(=O)c3ccccc3)c2)OC(=O)N1Cc1ccc(F)cc1 (stereo unspecified)	-11%
O=C1CCCN1C1CCN([S+](=O)([O-])c2cccs2)CC1	0%[70.6 µM]
Cc1cn2nnc(C(=O)N3CCC(C(=O)NCc4ccccc4Cl)CC3)c2c(=O)[nH]1	0%
CS(=O)(=O)N(C1CC1)C1CCOC2(CCN(C(=O)Cc3cccc(F)c3)CC2)C1 (stereo unspecified)	-3%
CC(C)NC(=O)CC[C@@H]1CNC(=O)[C@@H]2C[C@H](NC(=S)NCc3ccco3)CN12	5%[70.6 µM]
COCc1nc(C2CCCN(C(=O)Cc3ccccc3C)C2)no1 (stereo unspecified)	0%
COc1ccc(C2Cn3cnc(C(=O)N4CCC(C(=O)NCc5cccnc5)CC4)c3CO2)cc1 (stereo unspecified)	0%
CNC(=O)[C@@H]1CN(S(=O)(=O)c2cccc(C#N)c2)C[C@H]1COC	7%
CCOc1ccc(NC(=O)Cn2c(C)ccc(NC(=O)Nc3cccc(C)c3)c2=O)cc1	0%
O=C([C@H]1C[C@@H](F)CN1S(=O)(=O)c1ccc(Cl)cc1)N1CCOCC1	1%
O=C(c1ccc(F)cc1)N1CC(c2nnc(-c3ccncc3)o2)C2(CCOCC2)C1 (stereo unspecified)	1%
Cc1cn2nc(C(=O)NCc3ccccc3F)cc2c(=O)[nH]1	9%
O=C(C1CC(=O)N(c2n[nH]c3ccccc23)C1)N1CCc2c([nH]c3ccccc23)C1 (stereo unspecified)	0%
O=C(CCc1ccccc1)N1CCC2(CC1)N=C(c1ccc(Cl)cc1)NO2	?
CCOc1ccc(-c2nnc3n2CCCC3)cc1OCC	3%
O=C(c1cccnc1)N1CCN2C(=O)N(C3CCOCC3)C[C@H]2C1	-2%[70.6 µM]
COCCN1C[C@H]2CN(Cc3nccs3)CCN2C1=O	0%[70.6 µM]
O=C(C1CC=CCC1)N1CCC(C2CCNC2)CC1 (stereo unspecified)	6%
C=CCNC(=O)CCc1c(C)nn(-c2ccc(F)cc2)c1Oc1ccc(F)cc1F	-14%
CCCNC(=O)c1ccc2c(c1)CC(=O)N2Cc1cccc(F)c1	-2%
COC[C@H]1NC(=O)CC[C@H]1C(=O)Nc1cc(OC)ccc1OC	4%
Cc1noc(C)c1CN1CCNc2cc(-c3ccccc3)ncc2C1	0%[70.6 µM]
O=C(c1cccs1)N1CCC(N2C(=O)C(OCC3CC3)C23CCCCC3)CC1 (stereo unspecified)	-3%
O=C(c1cnccn1)N1C[C@@H]2OCC(=O)N(CC3CC3)[C@@H]2C1	9%[70.6 µM]
Cc1noc(-c2ccc3c(c2)OCO3)c1C(=O)N1CCC(Cc2ccccc2)CC1	-26%
N#Cc1ccc(O[C@@H]2CCOC[C@H]2NC(=O)CCCn2cncn2)cc1	2%
O=C1CCc2cc(NC(=O)C3CCC3)ccc2N1	-2%
O=S(=O)(NCC1(COc2cnccn2)C[C@@H](O)[C@@H](O)C1)c1ccc(F)cc1 (stereo partly specified)	-1%[70.6 µM]
CCc1ccc(C(=O)N2CCC(Cc3nc(-c4ccc(F)cc4)no3)CC2)cc1	1.3µM*
Cc1ccc(-c2nc(C3CC(=O)N(C4CCCCC4)C3)no2)cc1 (stereo unspecified)	?
Cn1cc(CN2CCOc3cc([S+](=O)([O-])Nc4nncs4)ccc3C2)cn1	0%[70.6 µM]
CCOCCOC1CCN(C(=O)Nc2cccc(C)c2)CC1	0%
CC(O)c1cc2n(n1)CCCN(C(=O)CCc1cn3ccccc3n1)C2 (stereo unspecified)	1%
COc1ccc(C(=O)N2CCC3(CCC(=O)N(Cc4ccccc4)CC3)CC2)c(OC)n1	8%
O=C(N1CCC(Cc2nc(C3CCOCC3)no2)CC1)C1(c2ccccc2)CC1	-15%
Cc1noc(-c2ccc(OC3CN(C(=O)CCCc4ccccc4)C3)cc2)n1	?
Cc1n[nH]c(C)c1CNC(=O)CN1CC2CC(C1)[C@H]1CCCC(=O)N1C2 (stereo partly specified)	-1%

# Rewritten with the structure last: part of the list above
hNpr1 antagonist | SMILES
-1% | Cc1n[nH]c(C)c1CNC(=O)CN1CC2CC(C1)[C@H]1CCCC(=O)N1C2 (stereo partly specified)
0% | CCOCCOC1CCN(C(=O)Nc2cccc(C)c2)CC1
? | Cc1noc(-c2ccc(OC3CN(C(=O)CCCc4ccccc4)C3)cc2)n1

# Continuation.
canonical_smiles	hNpr1 antagonist
Cc1nc([C@@H]2CN(C(=O)CN3CCCCCC3)C[C@H]2C(N)=O)n[nH]1	6%
O=C(Nc1cccc(C(F)(F)F)c1)N1CCCC1c1nncn1C1CCCC1 (stereo unspecified)	-7%
CCC(=O)N(C1CCOCC1)C1CCN(Cc2ccc(C)o2)CC1	-5%
CC(C)(C)CC(=O)N1CCN2C(=O)c3cc(Br)ccc3NC(=O)[C@H]2C1	-2%[70.6 µM]
O=C1NCCCCCN(C(=O)NC2CCCCC2)[C@@H]2C[C@@H](C(=O)N3CCc4ccccc4C3)C[C@H]12	0%
COc1ccc(N2CCC(N)C2=O)cc1 (stereo unspecified)	-7%
COCCn1c(C)cnc1C1CCN(C(=O)C2CCC2)C1 (stereo unspecified)	5%
COCCn1c(C)cnc1CCNC(=O)NCCc1ccccc1	-17%
COc1ccc(CN2C[C@@H](F)[C@@H](OCc3nc4ccncc4[nH]3)C2)cc1	-19%[70.6 µM]
Cc1ccc(S(=O)(=O)N2C[C@H](F)C[C@@H]2C(=O)N2CCOCC2)cc1Cl	6%
O=C(CCCc1c[nH]c2ccccc12)NCC(=O)N1CCCCCNC(=O)CC1c1ccccc1 (stereo unspecified)	7%
CNC(=O)[C@@H]1CN(C(=O)c2sc(C)nc2C)C[C@H]1c1n[nH]c(C)n1	9%
COc1ccc(C(=O)N2C[C@@H](Oc3ccccc3)C[C@@H]2C(=O)N2CCOCC2)cc1	-6%
COc1ccc(NC(=O)c2ccc3c(c2)N(C)C2CCCCN2C3=O)c(OC)c1 (stereo unspecified)	3%
COCCCN1C(=O)N(Cc2nncn2C(C)C)C(=O)C12CCNCC2	-1%
CN1C[C@@H]2CCCN3CCC[C@@H]([C@H]23)[C@H]1CCCC(=O)NC1CC1	0%
CC(C)c1nncn1C1CCN(S(=O)(=O)c2cccc(Br)c2)CC1	?
COc1ccc(CN2C(=O)C3(CCOCC3)CC2c2nnnn2C(C)(C)C)c(OC)c1 (stereo unspecified)	0%
NC(=O)[C@H]1CCCN1Cc1c(C(=O)N2CCCCCCC2)nc2sccn12	-1%
Cc1nn(C)c(C)c1-c1cc(C(=O)N[C@H]2CC[C@H]2NC(C)C)n(C)n1	4%
CN1C[C@H](NCc2cccc3c2OCO3)CCC[C@@H](C(=O)NCc2cc(F)cc(F)c2)CC1=O	-2%
CCCNC(=O)C(NC(=O)c1cccc(OC)c1)C1CCN(C(=O)c2ccccc2F)CC1 (stereo unspecified)	-2%
Cn1nc(C2CCN(C(=O)c3ccc4ccccc4n3)CC2)c2c1CCOC2	7%
Cn1c(C(=O)NCCN2CCCCC2)cc2c1CCN(Cc1cccc(F)c1)C2	0%
COc1cc2c(cc1OC)C(CNC(=O)Nc1ccc(C)cc1)N(C(=O)NC(C)C)CC2 (stereo unspecified)	-13%
CCC1Oc2ccc(NC(=O)Cc3ccccc3)cc2CN(Cc2ccc(F)cc2)C1=O (stereo unspecified)	-6%
Cc1cc(C[C@@H]2COC[C@@H]2NC(=O)c2csc(Cc3ccccc3)n2)on1	6%
Cc1cccc(NC(=O)Cn2c(N(C)Cc3ccccc3)nc(C)cc2=O)c1	20µM*
CN(Cc1cc2cc(F)ccc2[nH]1)C(=O)C1CCC(=O)N(C2CCCC2)C1 (stereo unspecified)	-17%
CCn1cc(-c2c(-c3ccccc3)ncn2C(CO)C(=O)O)cn1 (stereo unspecified)	-1%
COc1ccc(CN2Cc3[nH]cnc3C[C@H]2C(=O)N(C)Cc2ccccc2)c2ccccc12	-26%
CC(O)CCNS(=O)(=O)c1ccc2c(c1)CN(C(=O)CCn1cccn1)CC2 (stereo unspecified)	4%

# Random excerpt: six entries already listed
canonical_smiles	hNpr1 antagonist
COc1ccc(CN2Cc3[nH]cnc3C[C@H]2C(=O)N(C)Cc2ccccc2)c2ccccc12	-26%
Cc1cc(C[C@@H]2COC[C@@H]2NC(=O)c2csc(Cc3ccccc3)n2)on1	6%
CCC1Oc2ccc(NC(=O)Cc3ccccc3)cc2CN(Cc2ccc(F)cc2)C1=O (stereo unspecified)	-6%
Cc1cccc(NC(=O)Cn2c(N(C)Cc3ccccc3)nc(C)cc2=O)c1	20µM*
CC(O)CCNS(=O)(=O)c1ccc2c(c1)CN(C(=O)CCn1cccn1)CC2 (stereo unspecified)	4%
CN(Cc1cc2cc(F)ccc2[nH]1)C(=O)C1CCC(=O)N(C2CCCC2)C1 (stereo unspecified)	-17%

# More structures follow:
canonical_smiles	hNpr1 antagonist
Cc1ccc(C(=O)N2CCN(c3cc(-c4ccccc4)[nH]n3)CC2)c(C)c1	11µM*
O=C(NC1CCCC1)c1ccc(-c2ccc(N3CCCCC3)nc2)cc1	-1%
O=C1NCCCCCCN(Cc2ccccc2)[C@H]2CCC[C@@H]12	1%
CC1=C(C(=O)OC(C)C)C(c2ccccc2)N2C(CC(=O)NCC3CCCO3)=CSC2=N1 (stereo unspecified)	-2%
COC1CCN(c2cc(-c3ccccn3)nc3c(C)noc23)CC1	-1%[70.6 µM]
COc1ccc(CCC(=O)N2CCC[C@H]2c2nc(-c3ccc(C)cc3)no2)cc1	-25%
COc1cc(OC)c(NC(=O)Cn2c(C)cc3nc4n(c(=O)c32)CCCC4)cc1Cl	-6%
Cc1nc(-c2cn(C3CCCN(C(=O)c4cc(F)ccc4F)C3)nn2)no1 (stereo unspecified)	0%
CCc1ccc(S(=O)(=O)N2CCN(C3CCN(Cc4cccnc4)C3=O)CC2)cc1 (stereo unspecified)	-3%
CN(Cc1ccc(-c2ccccc2)cc1)C(=O)c1ccccc1F	7%[70.6 µM]
Cc1ccc(C(=O)Nc2ccc3c(N4CCOCC4)ncnc3c2)cc1C	-15%
Cc1nnc(-c2cc(-c3cnn(C)c3)ccn2)n1Cc1ccccc1	6%[70.6 µM]
CSc1cccc(NC(=O)N[C@H]2CCN(C(=O)C=C(C)C)[C@@H]2C(=O)N[C@@H](Cc2cccs2)C(N)=O)c1	0%
Cc1noc([C@@H]2CN(C(=O)c3ccoc3C)C[C@H]2C(N)=O)n1	-2%
CC1CCN(C(=O)[C@@H](C)C2CC[C@@]3(C)CC[C@H](NC(=O)Nc4cccc(F)c4)[C@@H](C)[C@@H]3[C@H]2O)CC1 (stereo partly specified)	-11%
Cc1noc([C@@H]2CN(CCCc3ccccc3)C[C@H]2CO)n1	1%
CCCNC(=O)NC1CCN(C(=O)N2CC3CC(C2)[C@H]2CCCC(=O)N2C3)CC1 (stereo partly specified)	2%
COCCN1C(=O)c2cccn2CC1CNC(=O)Cn1nc(C(F)(F)F)cc1C (stereo unspecified)	5%

# Not all compounds are listed; count on the stated rates, not on these rows.
